Screening results (PubChem)
HCMV UL50-53 inh – inhibitors of HCMV UL50-UL53 interaction, biochemical, HTRF. normalized percent inhibition. hit rate 0.15% among 190,000. HCMV UL50-UL53 nuclear egress complex (human cytomegalovirus). inhibition, % (test concentration not listed). AID 1918969, 2023;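 active means both replicates at 50% or more, plus weaker picks with an unusually low signal ratio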;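 further: stock transfer was 100 nL into about 20 µL; 0% = negative control wells and 100% = wells with untagged competitor protein; inactives centre near -12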
GIV-Gai inh – inhibitors of GIV peptide binding to Galpha-i3, primary screen, biochemical, fluorescence polarization, FITC-GIV GBA peptide, rat Galphai3; 90 min; hits give low values; scaled: aluminum fluoride 0%, vehicle 100%; percent of control (FP), % (test concentration not listed); hit rate 0.42% among 210,000; Guanine nucleotide-binding protein G(i) subunit alpha-3 (Rattus norvegicus), P08753; AID 1224905, 2016;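 active means replicate mean at 85% of control or lower, very high polarization wells dropped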;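 further: wells of about 15 µL received 100 nL stock; the first replicate is given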
Target sequence (P08753 whole entry, looked up): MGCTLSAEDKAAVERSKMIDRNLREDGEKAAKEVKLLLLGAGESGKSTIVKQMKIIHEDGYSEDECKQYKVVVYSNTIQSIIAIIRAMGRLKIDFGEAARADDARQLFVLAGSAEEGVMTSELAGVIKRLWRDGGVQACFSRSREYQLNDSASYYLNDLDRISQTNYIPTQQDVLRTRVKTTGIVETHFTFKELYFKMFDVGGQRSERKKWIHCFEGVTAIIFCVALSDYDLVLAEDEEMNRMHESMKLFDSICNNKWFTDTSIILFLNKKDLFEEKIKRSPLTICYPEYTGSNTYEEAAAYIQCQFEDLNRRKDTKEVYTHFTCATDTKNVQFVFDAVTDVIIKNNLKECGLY
Sa growth 42C – S. aureus growth inhibition at 42 and 30 °C, primary screen, LtaS inhibitor project, RN4220, two temperatures; OD600, 20 h, 42 °C; hits give low values; relative growth, % (concentration not given with the values); hit rate 0.53% among 170,000; AID 720641, 2013;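 active means growth at 42 °C up to 50% and 20 or more points under that at 30 °C, or under 10% at both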;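 further: 300 nL library stock went into each well; scaled to the means of positive and negative controls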
Sa growth 42C second temp – recorded beside Sa growth 42C, whose call it bears; relative growth, %; measured here: growth at 30 °C;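 optical density after 20 h as mean of two plates; 100% = untreated growth and lower means inhibition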
Numbers without * were called inactive; · = not tested or not shown; & = joins results of further samples.

Molecule	HCMV UL50-53 inh	GIV-Gai inh	Sa growth 42C	Sa growth 42C second temp
O=S(=O)(NC1CCSC1)c1ccc(Cl)cc1 (configuration not stated)	-7	106	87	77
C=C1C(C(=O)N2CCN(Cc3ccccc3)CC2)C1C(=O)N1CCN(Cc2ccccc2)CC1 (configuration not stated)	-36	·	102	89
O=C(Cc1cccs1)NCc1ccccc1Br	-13	106	108	91
COc1ccc(C2=NC(C)(C)N(CC(=O)Nc3ccccc3)C2=O)cc1	-11	106	115	94
CCN1C(=O)c2ccccc2S(=O)(=O)c2ccc(C(=O)NCc3ccc(C)cc3)cc21	-24	96	110	92
Cc1ccc(-c2nnn(CC(=O)N3N=C(c4cccs4)CC3c3ccco3)n2)cc1 (configuration not stated)	-33	·	101	80
O=C1NC(=O)C(Nc2ccccc2)S1 (configuration not stated)	-18	94	90	83
c1ccc(-c2noc(NCCN3CCOCC3)n2)cc1	-28	101	94	91
CCOC(=O)c1cccn1-c1ncc(C(F)(F)F)cc1Cl	-8	109	·	·
Cc1cccc(NC(=O)Cn2cc(C(=O)C3CC3)c3ccccc32)c1C	0	106	86	93
C(=C\c1ccccc1)/Cn1c(C2CCCO2)nc2ccccc21 (configuration not stated)	0	108	·	·
COC(=O)COc1ccc(Oc2nc(NC(C)(C)C)nc(N(C)C)n2)nn1	-11	100	81	91
COc1ccc2nc(N=C(N)N)nc(C)c2c1	-23	·	92	41
C1=C(c2ccccc2)CC(c2ccccc2)=NN=C1c1ccccc1	-38	103	94	82
CC(C)Oc1ccc(C(=O)NCC(c2ccc(N(C)C)cc2)N2CCCC2)cc1 (configuration not stated)	·	96	96	86
Cc1nc(COC(=O)c2ccc3c(=O)n4c(nc3c2)CCCCC4)cs1	-30	·	84	80
Cc1c(C)n(-c2ccccc2)c2ncn(CCC(=O)NCCCN3CCCC3=O)c(=O)c12	-22	102	·	·
CCCNC(=O)Nc1cccc(-c2noc(-c3ccncc3)n2)c1	2	103	·	·
O=C(Nc1ccccc1)c1cccc(S(=O)(=O)N2CCCCC2)c1	-10	99	87	96
CCS(=O)(=O)c1nc(S(=O)(=O)c2ccc(Cl)cc2)c(N2CCCC2)s1	·	99	107	86
Cc1ccc(NC(=O)Cn2cc(S(=O)(=O)N3CCC(C)CC3)c3ccccc3c2=O)c(Br)c1	-16	103	89	85
Cc1oc(-c2ccccc2)nc1CS(=O)CC(=O)N(C)Cc1ccccc1 (configuration not stated)	·	104	96	88
N#CC1=C(NC(=O)c2cc3ccccc3oc2=O)CCC1	7	101	97	103
COc1ccc(NC(=O)Cn2c3ncccc3c(=O)n2-c2ccc(C)c(C)c2)c(OC)c1	·	109	86	95
CCC(C(=O)Nc1nnc(Cc2cn(C)c3ccccc23)s1)N1C(=O)COc2ccccc21 (configuration not stated)	11	105	·	·
CC1Cc2cc(S(=O)(=O)CCC(=O)NCCc3ccc(Cl)cc3)ccc2N1C(=O)C1CC1 (configuration not stated)	-3	106	·	·
COc1ccc(OC)c(NC(=O)C(C(C)C)N2C(=O)c3ccccc3C2=O)c1 (configuration not stated)	-11	95	96	84
O=C(COC(=O)Cc1cccc(C(F)(F)F)c1)NCc1ccco1	-22	·	126	96
COc1cccc(/C=C/c2nc3ccccc3c(=O)n2-c2ccc(C)c(C)c2)c1OC	·	107	123	88
Cc1ccc(CNC(=O)c2cnn(-c3ccc(F)cc3F)c2C2CCN(C(=O)OC(C)(C)C)CC2)cc1	·	110	90	80

Compound profiles, as listed above. Order of screens: HCMV UL50-53 inh, GIV-Gai inh, Sa growth 42C, Sa growth 42C second temp
CCOC(=O)c1cccn1-c1ncc(C(F)(F)F)cc1Cl across the screens: -8, 109, ·, ·
Cc1c(C)n(-c2ccccc2)c2ncn(CCC(=O)NCCCN3CCCC3=O)c(=O)c12 across the screens: -22, 102, ·, ·
Cc1ccc(CNC(=O)c2cnn(-c3ccc(F)cc3F)c2C2CCN(C(=O)OC(C)(C)C)CC2)cc1 across the screens: ·, 110, 90, 80
O=C1NC(=O)C(Nc2ccccc2)S1 (configuration not stated) across the screens: -18, 94, 90, 83
COc1cccc(/C=C/c2nc3ccccc3c(=O)n2-c2ccc(C)c(C)c2)c1OC across the screens: ·, 107, 123, 88

Additional compounds:
Molecule	HCMV UL50-53 inh	GIV-Gai inh	Sa growth 42C	Sa growth 42C second temp
Cc1ccc(C(=O)N2CCC(c3noc(-c4ccc(S(=O)(=O)N5CCCC5)cc4)n3)CC2)cc1	0	96	·	·
Clc1ccc(-c2nnn3c2nc(Cl)c2ccccc23)cc1	·	99	114	86
COc1ccc(/C=C2\SC(=NC3CCCC3)NC2=O)cc1	-38	·	77	87
Cc1ccc(O)cc1	-10	·	90	93
Cc1oc(-c2ccccc2Cl)nc1CS(=O)(=O)CC(=O)NC(C)CCc1ccccc1 (configuration not stated)	11	104	86	40
Cc1ccc(-n2c(C)cc(CNC(=O)NCC3CCCO3)c2C)cc1 (configuration not stated)	3	107	·	·
O=C(Nc1cccc(-n2cnnn2)c1)C1CC(=O)N(c2ccc3c(c2)OCCO3)C1 (configuration not stated)	3	·	93	93
CO/N=C(/C(=O)NC1C(=O)N2C(C(=O)OC(C)OC(C)=O)=C(COC(N)=O)CSC12)c1ccco1 (configuration not stated)	-16	·	26	44
Cc1ccc(S(=O)(=O)CC(O)COc2ccc(Br)cc2)cc1 (configuration not stated)	-7	98	93	87
CCn1nccc1C1CCCN1C(=O)c1c(-c2c(F)cccc2Cl)noc1C (configuration not stated)	-19	104	·	·
O=C(CCn1c(=O)oc2ccccc21)N1CCCc2ccccc21	0	101	95	83
CCCCn1ncc(O)c(Cl)c1=O	-17	98	116	110
Cc1ccc2nc(COc3cccc(NC(=O)c4cccc(Cl)c4)c3)cc(=O)n2c1	·	101	83	95
COc1ccc(OC)c(CNC(=O)c2c(C)oc3ncn(C)c(=O)c23)c1	·	106	92	90
CCN(C(=O)Cc1nc(-c2ccc(OC)cc2)no1)c1cccc(Cl)c1	·	105	123	86
CC(C)(C)OC(=O)N1CCC(c2c(C(=O)O)cnn2-c2ccccc2)CC1	-18	101	121	84
CCn1c(=S)[nH]c2cc(C(=O)O)ccc2c1=O	-20	·	85	91
Cc1cccc(C)c1NC(=O)C(C)N (configuration not stated)	-70&-23&-20	106	95	89
CSC(=NC(=O)c1c(Cl)cccc1Cl)N1CCCC1	-10	102	96	89
COc1cc(OC)c(NC(=O)NCC2CCN(Cc3ccc(Cl)cc3)CC2)cc1Cl	-9	101	·	·
Cn1c(=O)[nH]c(=O)c2c1nc1oc(C(C)(C)C)cn12	-12	108	100	94
Cc1ccc(C)c(N2CCN(C(=O)C3CCN(S(=O)(=O)c4cn(C)c(C)n4)CC3)CC2)c1	-8	103	·	·
c1ccc(Sc2ncnc3c2oc2ccccc23)cc1	8	107	73	85
COc1ccc(C2=NN(S(=O)(=O)c3ccc(C)cc3)C(c3ccc(F)cc3)C2)cc1 (configuration not stated)	2	109	·	·
COc1ccc(OC)c(COC(=O)Cc2coc3cc(OC)ccc23)c1	-8	·	89	102
Cc1nnc(C)n1N1C(=O)c2cccc3cccc(c23)C1=O	-39	97	73	75
Cc1ccnc(NC(=O)c2cccs2)c1	3	·	109	89
COc1ccc(NC(=O)C2COc3ccccc3O2)cc1 (configuration not stated)	-14	104	·	·
CC(C)(C)NC(=O)CN1CCN(CC(N)=S)CC1	-4	·	103	89
CC(C)c1ccc(C(=O)Nc2ccc(-c3nc4ccccc4s3)c(Cl)c2)cc1	29	108	102	107
Cn1cnnc1SCC(=O)Nc1cc(C(=O)O)cc(C(=O)O)c1	·	101	94	92
CC(C)CNS(=O)(=O)c1ccc(N2C(=O)C(C)CS2(=O)=O)cc1 (configuration not stated)	6	103	·	·
COc1ccc2c(c1)c1c(c(=O)n(-c3ccc(F)c(Cl)c3)c(=O)n1Cc1cccc(C)c1)n2C	·	104	126	94
O=C(c1ccc(CNS(=O)(=O)c2ccc(F)c(Cl)c2)cc1)N1CCOCC1	-8	·	108	89
CCOc1ccc(Br)cc1C1C(C(=O)Nc2ccccc2OC)=C(C)Nc2nnnn21 (configuration not stated)	-31	100	90	90
CCSc1nc2c([nH]1)c(=N)ncn2Cc1ccccc1	-3	107	86	93
CCOC(=O)c1cc2occc2n1CC(=O)N1CCCCC1C (configuration not stated)	-2	104	91	85
CC1CC(C)CN(C(=O)CS(=O)(=O)c2ccccc2)C1 (configuration not stated)	-8	101	104	95
O=C(CN1C(=O)C2CCCCN2c2ccc(C(=O)N3CCCC3)cc21)N1CCCC1 (configuration not stated)	-34	102	·	·
Cc1[nH]ncc1S(=O)(=O)c1ccc(Cl)cc1	-5	107	93	86
O=C1c2ccccc2C(=O)N1CCCOc1ccccc1	-20	107	109	108
COc1ccc(NC(=O)C2=C(C)Nc3ncnn3C2c2ccc[nH]2)cc1 (configuration not stated)	·	106	80	96
COCCOc1ccc(C(F)(F)F)cc1NC(=O)CSc1nnc(-c2ccc(F)cc2)o1	-33	·	82	74
O=C(OC1CCCCC1=O)c1ccc(F)cc1Cl (configuration not stated)	-7	·	104	91
Cc1ccc(NC(=O)CN(C)S(=O)(=O)c2ccc3c(c2)CCCC(=O)N3)cc1F	-9	107	90	99
Nc1nnc(CCC(=O)O)c(=O)[nH]1	-10	96	83	84
O=S(=O)(Nc1ccc(C(O)(C(F)(F)F)C(F)(F)F)cc1)c1ccccc1	-27	·	97	66
CC(C)(C)c1ccc(C(=O)N2CC(=O)Nc3ccc(F)cc3C2c2ccc(F)cc2)cc1 (configuration not stated)	-4	106	72	89
CC1CCCC(C)N1C(=O)c1noc2c1CCc1ccccc1-2 (configuration not stated)	2	101	107	66
O=C(Nc1ccccc1C(=O)OCc1nc2sc3c(c2c(=O)[nH]1)CCCC3)c1ccco1	3	·	103	103
Cc1ccc(/C(O)=C2/C(=O)C(=O)N(CC3CCCO3)C23C(=O)N(C)c2ccccc23)cc1 (configuration not stated)	-7	100	93	100
CCOC(=O)c1nc2ccccc2nc1Nc1ccccc1OCC	-4	97	·	·
Cc1cccc(N2CCN(CCCNc3ncnc4onc(C)c34)CC2C)c1 (configuration not stated)	-8	101	92	81
Cc1noc(-c2ccccc2OCC(=O)Nc2ccccc2[N+](=O)[O-])n1	-58	103	102	86
COc1ccc(C2C3=C(CC(c4ccc(OC)c(OC)c4)CC3=O)Nc3onc(C)c32)c(OC)c1 (configuration not stated)	-21	100	·	·
N#CCCN1N=C(c2ccccc2)/C(=C\c2cn(CCC#N)nc2-c2ccccc2)C1=O	-8	·	107	88
O=C(CCn1c(=O)sc2cc(S(=O)(=O)Nc3ccc(Cl)cn3)ccc21)N1CCCC1	-11	103	·	·
COc1ccccc1N1CCN(C(=O)Cn2ncc3c([nH]c4ccccc43)c2=O)CC1	·	98	98	95
CCOC(=O)c1cnc2c(F)ccc(F)c2c1Oc1cncc(Cl)c1	-15	99	99	89
COc1ccc(NC(=O)CSc2nc3ccncc3[nH]2)c(OC)c1	1	101	99	88

4 successive entries from above, quoted:
Molecule	HCMV UL50-53 inh	GIV-Gai inh	Sa growth 42C	Sa growth 42C second temp
O=C(CCn1c(=O)sc2cc(S(=O)(=O)Nc3ccc(Cl)cn3)ccc21)N1CCCC1	-11	103	·	·
COc1ccccc1N1CCN(C(=O)Cn2ncc3c([nH]c4ccccc43)c2=O)CC1	·	98	98	95
CCOC(=O)c1cnc2c(F)ccc(F)c2c1Oc1cncc(Cl)c1	-15	99	99	89
COc1ccc(NC(=O)CSc2nc3ccncc3[nH]2)c(OC)c1	1	101	99	88

Going on with the list:
Molecule	HCMV UL50-53 inh	GIV-Gai inh	Sa growth 42C	Sa growth 42C second temp
CCCc1nc2ccccc2n1CC(=O)N1CCc2ccccc2C1	-16	·	100	94
Cc1ccccc1C1C(/C=c2/sc3nc4ccccc4n3c2=O)=C(c2ccccc2)Oc2ccccc21 (configuration not stated)	-10	102	·	·
O=[N+]([O-])c1cccc(C2CC(c3ccc(Br)cc3)=NN2S(=O)(=O)c2ccccc2)c1 (configuration not stated)	4	110	·	·
CCOC(=O)N1CCC(NC(=O)c2cnn(-c3ccc(F)cc3F)c2C2CCN(C(=O)OC(C)(C)C)CC2)CC1	·	101	87	93
Cc1ccc(C(C)C)c(OC(C)C(=O)Nc2ccc3c(c2)NC(=O)CO3)c1 (configuration not stated)	9	102	·	·
N#C/C(=C/c1cn(Cc2ccccc2Cl)c2ccccc12)C(=O)Nc1cccc(Cl)c1	5	105	112	96
O=C1CSc2ccc(S(=O)(=O)N3CCC(C(=O)NC4CC4)CC3)cc2N1	-4	105	·	·
Cc1nn(CCCC(=O)NCc2ccc(Cl)cc2)c(=O)c2c(-n3cccc3)n(-c3ccccc3)nc12	-28	99	·	·
N#C/C(=C\c1cccs1)S(=O)(=O)c1cccs1	7	107	100	96
C=CCNC(=O)c1cc(-c2cccnc2)nc2ccc(Br)cc12	-42	123	·	·
